gsp antagonist: qHTS for Antagonists of gsp, the Etiologic Mutation Responsible for Fibrous Dysplasia/McCune-Albright Syndrome: qHTS | gsp-mutant cells, cAMP HTRF, 30 min; control for the full effect not named in the record | Potency, µM (series often up to 76.9 µM), without a hit: at the top dose activity change, negative = inhibition, hits mostly inhibitors | actives 0.4% (n = 340,000); active = falling curve of any shape with a large fitted effect; inconclusive = falling curve, mostly with a smaller effect; inactive = flat or rising curve; cell line not stated here;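 also: intracellular cAMP measured with PDE inhibitor Ro 20-1724 present during compound exposure; potency is read from the fitted curve at half-maximal effect; % is scaled to controls: 0 for no effect and ±100 for the full control effect; nearly all actives have a fitted effect of over 65% in size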
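HTRF cAMP read-out (cAMP-d2 plus anti-cAMP antibody-K in lysis buffer, 30 min RT). Before lysis, cells are exposed to compounds with […] for 30 min at 37C in DPBS containing Ca/Mg, BSA and Tween 20.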
ClpP mod: qHTS Assay for Activators of ClpP; AID 651965, 2013; Potency, µM (highest dose often 57.5 µM), for inactives: top-dose activity change, negative = active; actives 1.9% (n = 340,000); purified B. subtilis ClpP, FRET peptide cleavage, 20 min; active = well fitted falling curve with a large enough effect; inconclusive = small, poorly fitted or top-dose-only effect; inactive = no such curve, though single readings can be large or run the other way; also: potency is read from the fitted curve at half-maximal effect; the source files actives as falling curves though it sought activators and does not explain the sign; nearly all actives have a fitted effect of over 65% in size; many hits overshoot -100%
Target sequence (P80244 whole entry, looked up): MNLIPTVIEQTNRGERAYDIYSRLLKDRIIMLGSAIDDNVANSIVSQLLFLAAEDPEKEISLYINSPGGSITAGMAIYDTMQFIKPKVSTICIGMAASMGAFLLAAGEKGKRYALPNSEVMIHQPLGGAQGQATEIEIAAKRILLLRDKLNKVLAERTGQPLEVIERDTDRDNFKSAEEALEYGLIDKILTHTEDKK
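Buffer: 100 mM Tris/HCl pH8, 100 mM KCl, 0.05% low protease BSA, 2.5% glycerol, 0.01% Tween-20. ClpP 10 microg/mL final; 20 min RT; delta FRET normalized to ADEP and DMSO controls.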
Menin-MLL FL inh: qHTS Assay for Inhibitors Targeting the Menin-MLL Interaction in MLL Related Leukemias: Competition With Fluorescein Labeled MLL-derived Peptide | Fluorescence polarization, fluorescein-MLL peptide displacement from menin | FP activity change, % at 61.4 µM | 290,000 tested, under 10 active | AID 1766, 2009; inconclusive = falling polarisation curve, or a change in total fluorescence; inactive = total fluorescence flat and polarisation flat or rising; no compound was filed as active; the % refers to the polarisation; negative = inhibition;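 also: % of control where 0% means no effect; inhibitors lower the polarisation; unlabelled MLL peptide was the positive control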
gsp ag: qHTS for Agonist of gsp, the Etiologic Mutation Responsible for Fibrous Dysplasia/McCune-Albright Syndrome: qHTS | gsp mutant cells, cAMP HTRF, 30 min; control for the full effect not named in the record | Potency, µM (doses to about 76.9 µM), for the others: at the highest dose activation (cAMP increase), most hits filed as activators | AID 624287, 2012 | actives 0.13% (n = 340,000); active = well fitted activation curve with a large enough effect; inconclusive = small, poorly fitted or top-dose-only effect, or another doubt; inactive = no such curve, though single readings can be large or run the other way; cell line not stated here;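 also: phosphodiesterase inhibitor Ro 20-1724 added with compounds to block cAMP breakdown; potency is read from the fitted curve at half-maximal effect; nearly all actives have a fitted effect of over 60% in size; about a fifth of the inactives were tested at one dose only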
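Cells stably selected in G418 were plated at 2000/well, grown 16-24 hr, then given compounds in DMSO with the PDE inhibitor […] (300 uM solution added) for 30 min at 37C; cAMP was read by HTRF.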
TRPML1 agonist: qHTS for Agonists of the Human Mucolipin Transient Receptor Potential 1 (TRPML1); Mucolipin-1 (Homo sapiens), Q9GZU1; TRPML1-expressing cells, Ca2+ dye fluorescence, FDSS; host cell line not named in the record; reference of the full effect not given here; activation, % (no concentration beside the values); actives 0.12% (n = 410,000); AID 624414, 2012; in the data active = activation above about 50%; inconclusive = about 30% to 50%; inactive = below about 30%; also: 0% is about no effect; the text of the record puts the active cut at 80%
Target sequence (Q9GZU1 whole entry, looked up): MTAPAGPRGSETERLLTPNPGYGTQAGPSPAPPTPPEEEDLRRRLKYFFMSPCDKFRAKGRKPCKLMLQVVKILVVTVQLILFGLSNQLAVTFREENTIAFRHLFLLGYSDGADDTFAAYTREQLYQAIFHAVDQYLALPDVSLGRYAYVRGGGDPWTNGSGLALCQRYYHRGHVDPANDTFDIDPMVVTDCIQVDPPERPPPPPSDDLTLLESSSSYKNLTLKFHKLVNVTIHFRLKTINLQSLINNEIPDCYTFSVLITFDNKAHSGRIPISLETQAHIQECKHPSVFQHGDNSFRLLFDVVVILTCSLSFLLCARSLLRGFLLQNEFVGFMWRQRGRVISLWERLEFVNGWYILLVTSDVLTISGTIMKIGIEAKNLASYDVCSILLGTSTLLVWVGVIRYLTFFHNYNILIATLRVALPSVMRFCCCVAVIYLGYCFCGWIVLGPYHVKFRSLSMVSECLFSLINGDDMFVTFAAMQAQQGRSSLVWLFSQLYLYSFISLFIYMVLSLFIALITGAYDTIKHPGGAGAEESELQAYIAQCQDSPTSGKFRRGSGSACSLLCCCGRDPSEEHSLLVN
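Tet-induced TRPML1-DL cells, 1,500 per well, cultured overnight, were loaded with a no-wash Ca2+ dye for 45–90 min. Calcium fluorescence was recorded on the FDSS for 110 s after compound addition, before the EC80 agonist (4 uM 54-4) was added.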
TRPML1 inh: qHTS for Inhibitors of the Human Mucolipin Transient Receptor Potential 1 (TRPML1) | AID 624415, 2012 | activity change, negative = inhibition, % (test concentration not listed) | actives 0.02% (n = 390,000) | Mucolipin-1 (Homo sapiens), Q9GZU1 | TRPML1-inducible cells, Ca2+ dye fluorescence, FDSS; active compounds read low; inhibition of EC80 agonist-evoked calcium signal; in the data active means activity change below about -50%; inconclusive means about -30% to -50%; inactive means above about -30%;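 also: stimulus is agonist 54-4 at its EC80 concentration; % is scaled to controls: 0 for no effect and ±100 for the full control effect; compound concentration not given in the record; the text of the record puts the active cut at -80%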
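Tet-induced TRPML1-DL cells loaded with Ca8 no-wash calcium dye were read kinetically on FDSS. Compound addition was followed by EC80 agonist 54-4 (4 uM final); inhibition was read over 110 s.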
Active calls of the source: *; ? = inconclusive; / = not tested or not shown; [ ] = another dose, or the depositor's remark. The order is random; 2.1% or so of the library scored in one or more.

molecule	Menin-MLL FL inh	ClpP mod	TRPML1 agonist	TRPML1 inh	gsp antagonist	gsp ag
Cc1nc2c(F)c(F)c(C(F)(F)F)c(F)c2[nH]1	-1.1	0.1%	0.3	-9.2	-27.5%	16.4%
COc1ccc(NC(=O)COc2ccccc2C(=O)NCC(c2ccccc2)N(C)C)cc1Cl (stereo not drawn)	-3.7	/	-0.5	10.6	4.3%	-16.8%[15.4 µM]
FC(F)C(F)(F)C1=CC(c2ccccc2)=NCCN1	1.0	-2.3%	0.1	0.2	-1.7%	-12.1%
O=C(O)CC1c2ccccc2S(=O)(=O)N1Cc1ccccc1 (stereo not drawn)	5.2	-1.2%	-0.7	-1.4	8.0%	-19.9%
Cc1c(CN2CCC(CO)(Cc3ccccc3)CC2)c2ccccc2n1C	-6.0	-3.5%	1.3	9.5	-5.8%	?
Cn1c(CN2CCOCC2)nc2cc(NC(=O)c3ccccc3Cl)ccc21	-5.1	0.6%	-0.3	-9.0	2.2%	-26.4%
O=C(Nc1cccnc1)c1cc(F)c(F)cc1Cl	-1.6	/	-0.4	-4.2	12.0%	1.7%
O=C(Nc1ccc2[nH]c(=O)c(=O)[nH]c2c1)c1cccc(F)c1	/	-8.7%	0.4	1.3	/	/
CCOc1ccc(OCC)c(NS(=O)(=O)c2ccc3[nH]c(=O)ccc3c2)c1	/	0.4%	1.3	71.3	/	/
CC(C)CC1N=C2c3ccccc3N=C(SCC(=O)NCCc3ccc(Cl)cc3)N2C1=O (stereo not drawn)	/	?	0.3	-8.2	/	/
CSc1nc(Sc2ccccc2)c2ccccc2n1	-1.2	-11.5%	-0.2	20.0	-2.3%	-6.5%
O=C(Nc1ncccc1Cl)c1cc2ccccc2o1	/	-0.5%	1.1	3.0	0.7%	-3.8%
O=C(O)c1cc(NS(=O)(=O)c2ccc3ccccc3c2)ccc1O	-4.8	-0.1%	0.6	13.4	9.6%	-0.8%
CCCCNC(=O)Nc1cnn(CC)c1C(N)=O	-3.2	0.9%	-0.7	-1.7	11.8%	0.0%
N#CC(C(=O)NC1CC1)c1nc2ccccc2nc1N1CCCC1 (stereo not drawn)	?	?	2.2	2.7	30.8%	25.6%
CC1CCCCC1NC(=O)CN1CCN(S(=O)(=O)c2ccc(Br)s2)CC1 (stereo not drawn)	/	14.1µM*	2.2	-4.8	5.5%	-18.8%
COc1ccccc1CCC(=O)OCC(=O)Nc1c(Br)cc(C)cc1Br	/	/	1.4	-2.9	3.4%	-25.4%
Nc1cccc(S(=O)(=O)Nc2ccc(SC(F)F)cc2)c1	0.9	/	0.1	0.5	-6.5%	-11.0%[15.4 µM]
CC1CC(C)CN(CCCNC(=O)c2ccc3c(c2)NC(=O)CS3)C1 (stereo not drawn)	-3.2	0.3%	1.1	24.2	15.0%	-3.1%
Cc1ccc(N2C(=O)C3ON(c4ccccc4)C(c4ccncc4)C3C2=O)cc1 (stereo not drawn)	1.9	-2.8%	0.3	9.7	?	11.1%
O=[N+]([O-])c1cc(/C=N/n2c(-c3ccncc3)n[nH]c2=S)ccc1Cl	-2.8	/	-0.9	3.7	?	12.0%
NC(=O)c1ccsc1NC(=O)COC(=O)COc1ccccc1F	4.8	-13.1%	0.2	18.5	7.2%	12.5%
O=C(/C=C/c1cccs1)N1CCc2ccccc21	5.9	1.5%	2.1	1.5	-2.9%	-41.8%[inhibitor]
Cc1cccc(C(=O)Nc2nnc(-c3ccco3)o2)c1	12.8	-8.7%	1.9	3.6	3.9%	-25.2%
COCC1CCCN(C(=O)c2cc(COc3cccc4cccnc34)on2)C1 (stereo not drawn)	/	-19.4%	0.0	-10.0	11.0%	-48.0%[inhibitor]
CNC(=S)N(CCc1ccc(OC)c(OC)c1)C1CC(=O)N(c2ccccc2)C1=O (stereo not drawn)	1.1	/	0.6	-10.4	-13.7%	-12.0%[15.4 µM]
C=CCNC(=O)c1ccc(CSc2nc3ccccc3s2)cc1	/	-2.5%	0.9	-1.9	-16.9%	-5.1%
O=C(COc1ccc(S(=O)(=O)N2CCOCC2)cc1)Nc1ccc2c(c1)OCCO2	-2.0	-1.1%	0.4	12.5	-9.5%	-10.8%
CCc1cccc2c1NC(=O)C2(O)N1CCCC(C)C1 (stereo not drawn)	-1.2	2.8%	0.1	6.3	6.9%	-5.9%[15.4 µM]
COC(=O)c1cc(NC(=S)N2CCN(C(=O)C3CCCO3)CC2)cc(C(=O)OC)c1 (stereo not drawn)	-0.8	-3.9%	-0.5	19.1	1.2%	7.1%
CCOc1ccccc1NC(=O)c1oc2ccccc2c1NC(=O)C1CC1	/	-1.6%	0.5	16.1	-0.1%	1.0%
O=C(NCC(c1ccc(F)cc1)N1CCOCC1)c1c(F)cccc1F (stereo not drawn)	7.6	/	-0.3	-4.4	4.9%	-10.7%
O=C1c2ccccc2C(=O)N1CCc1c[nH]c2ccccc12	0.8	-1.2%	2.6	29.8	-20.7%	3.3%
CCc1ccc(CNC(=O)c2cnc(N3CCCCC3)c3ccccc23)cc1	/	31.6µM*	0.2	4.5	/	/
COC(=O)C1=C(C)N(Cc2ccccc2)C(=NCCc2c[nH]c3ccccc23)N[C@H]1c1cccc(C(F)(F)F)c1	4.4	-3.5%	0.8	3.7	14.7%	/
CCOc1cc(C)c(Cl)cc1S(=O)(=O)N1CCCC1	4.0	-1.2%	2.3	2.5	-1.4%	-30.8%[inhibitor]
O=C(O)CNS(=O)(=O)c1ccc2c(c1)Cc1cc(S(=O)(=O)NCC(=O)O)ccc1-2	5.9	-1.4%	2.3	-0.6	10.6%	?
COCc1cc(C)nc2sc(C(=O)NCCO)c(-n3cccc3)c12	7.6	-0.3%	1.6	10.8	-6.0%	6.4%
CCOc1ccc(NC(=O)c2cnc3sc(N4CCOCC4)nn3c2=O)cc1	/	-4.8%	0.3	-3.1	/	/
COc1ccc(C)cc1NC(=O)CN(c1cc(C(F)(F)F)ccc1Cl)S(C)(=O)=O	/	-1.2%	-0.8	-3.1	/	/
CCc1cc(=O)oc2cc(C)cc(OC(C)C(=O)NC3CCN(Cc4ccccc4)CC3)c12 (stereo not drawn)	-1.8	3.7%	-0.5	10.8	-15.6%	-23.0%
CSc1ccccc1NC(=O)c1cnc2scc(C)n2c1=O	-1.0	-1.2%	0.1	-7.8	-11.5%	24.7%
COc1cccc(/C=N/NC(=O)c2nnn(-c3nonc3N)c2C(C)C)c1OCc1ccc(F)cc1	/	/	1.7	21.1	?	2.1%
COC(=O)CNC(=O)CCC(=O)N1CCN(C(c2ccccc2)c2ccccc2)CC1	1.8	-0.5%	0.2	0.2	-5.0%	-9.3%[15.4 µM]
O=C(COc1cccnc1[N+](=O)[O-])Nc1ccc(Cl)c(S(=O)(=O)N2CCOCC2)c1	-0.5	/	-0.1	3.5	-3.2%	17.7%[15.4 µM]
Cc1cc(Oc2cc(NN3CCCCC3)c([N+](=O)[O-])cc2[N+](=O)[O-])c(C(=O)c2ccccc2)cc1Cl	-0.1	0.5%	-0.5	31.8	-4.4%	2.1%
CC1CCN(C(=O)COC(=O)CCCN2C(=O)c3cccc4cccc(c34)C2=O)CC1	/	31.6µM*	-0.3	15.5	1.3%	?
CCOC(=O)N1CCC(NC(=O)CN2C(=O)CCSc3ccccc32)CC1	-1.3	1.6%	-0.7	-3.0	2.4%	23.2%
O=S(=O)(NCC1OCCc2ccccc21)c1ccccc1 (stereo not drawn)	1.8	0.7%	-0.4	89.9	1.2%	10.4%
Cc1onc(-c2ccccc2Cl)c1C(=O)N1CCc2ccccc21	3.5	-3.9%	-0.7	-5.3	-13.1%	-6.1%
N#C/C(=C\c1ccccc1Cl)C(=O)Nc1ccccn1	-12.2	/	0.7	5.1	9.9%	?
N#CC1=C(N)N(c2ccccc2)C(=O)C1	4.1	0.8%	2.2	-2.8	9.1%	-28.6%
COc1cccc(CN2CCN(c3nc4nonc4nc3NC3CC3)CC2)c1	?	/	2.8	15.4	3.0%	4.8%[15.4 µM]
CC1CCc2nc(NC(=O)Nc3ccc4c(c3)OCO4)sc2C1 (stereo not drawn)	-0.6	1.7%	-0.8	-6.0	?	-0.8%[15.4 µM]
O=C(OC(C(=O)NCC1CCCO1)c1ccc(F)cc1)c1cccs1 (stereo not drawn)	0.4	2.2%	-0.6	1.8	-11.5%	-17.3%
CC1CC(C(F)F)n2nc(C(=O)Nc3sc4c(c3C#N)CCC(C(C)(C)C)C4)nc2N1 (stereo not drawn)	1.8	?	1.4	-1.5	-12.6%	13.1%
COc1ccc(NC(=O)Cn2nnc3sc4c(c3c2=O)CCC(C)C4)c(OC)c1 (stereo not drawn)	/	-0.8%	0.0	-0.4	/	/
COC(=O)NNC(=O)c1ccccc1C	7.4	-0.2%	0.3	-4.5	3.5%	-15.8%
O=C(CN1C(=O)c2ccccc2C1=O)NC1CCCCC1	/	-1.1%	-0.5	3.0	8.4%	-3.1%
CCC(C)NC(=O)c1c(N)n(/N=C/c2ccccn2)c2nc3ccccc3nc12 (stereo not drawn)	-1.5	-12.2%	0.0	0.6	-6.0%	11.9%

(continued)
molecule	Menin-MLL FL inh	ClpP mod	TRPML1 agonist	TRPML1 inh	gsp antagonist	gsp ag
CN(C(=O)c1cccc(NC(=O)Cc2ccc(NC(=O)C3CCCN(C(=O)CCc4ccccc4)C3)cc2)c1)C1CCCCC1 (stereo not drawn)	/	-1.0%	3.0	-6.7	-27.5%	/
COc1ccc(N/C=C/C(=O)c2sc(-c3ccccc3)nc2C)cc1	?	-2.8%	4.5	-20.8	-0.2%	3.3%
O=C1CN(C(=O)COC(=O)CCc2ccccc2O)c2ccccc2N1	/	1.1%	-0.2	-19.5	-5.4%	16.9%
CC(=O)c1cccc(NC(=O)NC2CCCCC2)c1	0.9	-4.1%	1.8	-12.1	4.2%	10.8%
COc1ccc(/C=N/NC(=O)CCc2nc3ccccc3[nH]2)cc1	6.3	-4.2%	1.0	11.3	12.4%	-48.6%
Cc1ccc(C)c(NC(=O)Cc2csc(-c3ccccc3)n2)c1	3.2	-13.4%	1.2	-8.8	-30.3%	3.3%
O=C(Nc1cccc(C(=O)N2CCN(c3ccc(Cl)cc3)CC2)c1)c1nsc2ccccc12	/	-4.7%	1.9	-10.6	/	/
COc1cc2c(cc1OC)CN(c1ccc(-c3ccccc3OC)nn1)CC2	?	-2.4%	6.7	7.0	-17.0%	2.8%
COc1ccc([C@H]2N[C@]3(CCCN(Cc4ccc(C)cc4)C3=O)[C@H]3C(=O)N(C)C(=O)[C@@H]23)cc1	/	-0.3%	-0.1	-4.8	/	-19.9%

Screens deposited in PubChem BioAssay by National Center for Advancing Translational Sciences (NCATS).
